Compound activity deposited in PubChem BioAssay by several laboratories.
PABP polyA inh: blocks human PABP binding to poly(A) RNA; P11940; inhibition, % at 35 µM; fluorescence polarization; actives 1% (n = 290,000);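 active = 50% or more with normal probe brightness, or confirmed in later tests; inconclusive = above 50% with abnormal brightness, or retests that disagree; inactive = below 50% or failed in later tests; about a fifth of its hits are not listed in these tables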;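 also: calls also rest on retests at 20 µM and on dose response follow-up; controls were probe without protein and protein plus probe with vehicle; some compounds called inactive have numbers as strong as hits; many hits fall short of the cut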
Target sequence (P11940 whole entry, looked up): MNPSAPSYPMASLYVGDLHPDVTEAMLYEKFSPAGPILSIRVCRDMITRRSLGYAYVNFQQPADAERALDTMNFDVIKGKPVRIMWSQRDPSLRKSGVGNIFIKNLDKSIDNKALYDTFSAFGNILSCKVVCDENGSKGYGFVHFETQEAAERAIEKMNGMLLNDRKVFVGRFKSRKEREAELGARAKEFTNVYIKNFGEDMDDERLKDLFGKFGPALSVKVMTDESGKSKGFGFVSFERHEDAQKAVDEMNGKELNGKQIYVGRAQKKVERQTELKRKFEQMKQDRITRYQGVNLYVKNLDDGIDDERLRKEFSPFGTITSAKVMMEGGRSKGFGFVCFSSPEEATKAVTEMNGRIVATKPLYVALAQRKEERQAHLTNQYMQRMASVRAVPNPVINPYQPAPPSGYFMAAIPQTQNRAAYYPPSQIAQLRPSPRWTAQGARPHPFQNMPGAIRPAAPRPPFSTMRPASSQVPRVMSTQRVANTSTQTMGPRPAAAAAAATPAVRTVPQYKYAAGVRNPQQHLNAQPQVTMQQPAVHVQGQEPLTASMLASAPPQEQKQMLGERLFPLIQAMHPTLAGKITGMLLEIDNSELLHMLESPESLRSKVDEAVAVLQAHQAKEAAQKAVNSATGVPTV
Rce1 inh: inhibitors of yeast Ras-converting enzyme | actives 0.27% (n = 290,000) | AID 2563 | calls only | yeast membranes, quenched prenylated peptide cleavage fluorescence;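 active = fall in fluorescence gain of 50% or more versus controls, with final raw signal at or below 3038400; inconclusive = same 50% fall but final raw signal above 3038400; inactive = fall in fluorescence gain under 50%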;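 also: plate controls were neutral control wells for no effect and wells lacking membranes for full effect; tested at 10 µM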
MT1-MMP act inh: blocks activation of human MT1-MMP; AID 651647; actives 0.061% (n = 360,000); GFP/RFP ratio change, % at 20 µM; HT1080 RFP-PRO-GFP cells, GFP/RFP ratio fluorescence, overnight; percent of plate control window, DMSO zero;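 active = GFP/RFP ratio change of at least 30% with cell ATP level not reduced by more than half and red fluorescence within 50% of control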; also: strong numbers were not always called active
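Material – HT1080 RFP-PRO-GFP cells · Control set – DMSO wells and RFP-L50D-GFP cells · Incubation – overnight cell settling, then overnight compound exposure, 37 °C, 5% CO2 · Compound dosing – single-point 20 µM compound, 1% DMSO · Read-out – GFP/RFP fluorescence ratio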
HIV Env fusion: HIV envelope-mediated fusion inhibition; HeLa-JRFL Env/CEM21 cell fusion, luciferase; inhibition, % at 12.3 µM; actives 1.1% (n = 360,000); AID 651610;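 active = mean replicate inhibition score of at least 50 and every replicate individually at or above 50; inconclusive = only one of the two criteria met; inactive = mean below 50 and not all replicates reaching 50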;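 also: 0% = plate neutral controls and 100% = maraviroc near 300 nM; one replicate is shown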
CSC inhib: cancer stem cell inhibition; cancer stem cell-like cells viability, luminescence; inhibition, % at 7.5 µM; actives 1.1% (n = 300,000);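 active = mean at 75% or more and at least half the replicates too; inconclusive = mean and replicates disagree; tested in HMLE shEcad cells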;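 also: 0% = median of negative and 100% = median of positive control wells; the first replicate is given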
Yeast UUG start: modulators of start codon recognition fidelity in yeast | S. cerevisiae UUG-firefly luciferase reporter, luminescence/redox ratio | activity score, % at 18.7 µM | actives 0.13% (n = 350,000) | AID 602363;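 active = replicate mean at a twofold rise or more, about +100% in these data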;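 also: firefly luciferase made from a UUG start codon reports start codon fidelity; reporter light over untreated wells divided by growth signal over untreated wells; some hits fall short of that in this replicate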
eIF4H FP inh: inhibitors of RNA binding by human eIF4H | Q15056 | eIF4H fluorescence polarization binding assay | inhibition, % at 35 µM | actives 0.94% (n = 290,000) | AID 2012;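 active = 50% or more with normal probe brightness, or confirmed in later tests; inconclusive = above 50% with abnormal brightness, or retests that disagree; inactive = below 50% or failed in later tests; about a fifth of its hits are not listed in these tables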;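 also: calls also rest on retests at 20 µM and on dose response follow-up; 0% = protein and probe with vehicle and 100% = probe without protein; strong numbers were not always called active; many hits fall short of the cut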
eIF4H FP inh retest: recorded beside eIF4H FP inh, whose call it bears; inhibition, %; compound at 20 µM; confirmation average;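 mean of two retest wells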
PABP polyA inh retest: further read-out of PABP polyA inh, marked with its call; inhibition, %; compound at 20 µM; confirmation repeats;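 mean of two retest wells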
MT1-MMP act inh RFP: second read-out of MT1-MMP act inh, no call of its own (marks repeat the call); RFP signal change, %; measured here: RFP expression control read;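 0 = vehicle wells; hits needed this value within 50% of zero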
Active calls of the source: *; i = inactive; ? = inconclusive; nt = no result given.

SMILES	PABP polyA inh	Rce1 inh	MT1-MMP act inh	MT1-MMP act inh RFP	HIV Env fusion	CSC inhib	Yeast UUG start	eIF4H FP inh	others
CC1(C(=O)N2CCCCC2)CCN1C(=O)c1ccccc1CCc1ccccc1 (stereo not given)	nt	nt	-3	-1	-16	nt	-24	nt
COc1ccc(C(=O)NCCSc2ccc(C)cc2)cc1	-12	i	2	1	-15	nt	-9	-6
O=C(NCC1CCCO1)c1ccc(CSCc2cccc(F)c2)o1 (stereo not given)	-16	i	-13	-19	4	-3	9	-2
COc1cccc(Nc2cc(N3CCOCC3)c3nonc3c2[N+](=O)[O-])c1	0	i	-3	1	nt	-12	5	0
O=C(CSc1nc2ccccc2c(=O)n1Cc1ccccc1)NCc1ccco1	0	i	5	-6	7	nt	-17	-4
Cc1nc(SCC(=O)c2cccc([N+](=O)[O-])c2)n[nH]1	-5	i	2	2	nt	-9	nt	4
Cc1cc(-c2ccc(Br)cc2)n[nH]1	8	i	4	-2	14	12	nt	1
CC(C)(C)C(=O)Nc1nnc(CSCc2ccccc2F)s1	-5	i	-5	0	23	-14	-23	-6
COc1ccc(CCNc2c3ccccc3nc3ccccc23)cc1OC	0	i	-5	-3	26	13	13	-3
CCC(=O)Nc1ccc(NC(=O)CSc2nnc(C(C)C)n2C)cc1	-2	i	-7	-7	nt	-6	-26	-10
CC(C)CNC(=S)NNC(=O)c1csc2c1CCC(C)C2 (stereo not given)	-2	i	5	-4	31	0	-14	12
CN1C(=O)C(O)(c2nnc(-c3ccccc3)o2)c2ccccc21 (stereo not given)	12	i	1	-1	-12	-11	nt	0
COC(=O)[C@]1(S(=O)(=O)c2ccccc2)C[C@@H]2ON=C(c3ccc(OC)cc3)[C@@H]2C1	-12	i	-3	6	-1	2	-16	-6
CC(C)CC(NC(=O)c1ccco1)C(=O)Nc1ccc2c(c1)OCCO2 (stereo not given)	-5	i	1	1	-28	-8	-31	-7
Cc1cc(C)cc(SCc2noc(C(=O)NC(C)C)c2C(=O)O)c1	-2	i	1	3	4	3	1	1
CC1CCc2nn(CC(=O)NC3CCCC(C)C3C)cc2C1 (stereo not given)	-10	i	1	-1	-3	0	-16	-9
NC(=O)c1cc[n+](CC(=O)c2ccc(NC(=O)c3ccccc3)cc2)cc1	25	nt	0	-1	-17	-12	nt	-9
O=c1oc2ccccc2nc1/C=C(O)/C=C/c1ccc(F)cc1	-3	i	-2	8	-28	-4	-18	24
CCn1c(SCc2nc3ccccc3s2)nnc1-c1ccccc1	6	i	-5	-1	nt	nt	-18	-1
O=C(Oc1cccc2ccccc12)c1ccco1	-3	i	5	-5	16	14	-16	4
COc1ccc(Nc2cc(C)nc3ccc(C)cc23)cc1	nt	nt	1	2	-17	nt	-13	nt
CCCn1c(N2CCN(Cc3ccc(Cl)cc3)CC2)nc2ccccc21	18	i	3	-7	16	-12	-7	-4
Cc1ccc(N2CC(C(=O)N3CCc4ccccc43)CC2=O)cc1 (stereo not given)	-6	i	-1	2	nt	2	-7	-3
CS(=O)(=O)c1ccc(Cl)c(NC(=O)CSc2nc3ccccc3c(=O)n2CCCN2CCOCC2)c1	2	i	-2	2	10	6	nt	-4
Cc1cc(SCC(=O)c2ccccc2)n2ncc(-c3ccccc3)c2n1	7	i	2	-2	-14	15	nt	6
c1ccn2c(Cc3nnc4ccccn34)nnc2c1	-2	i	0	4	-36	6	-20	-2
Cc1sc2ncn(CC(=O)N3CCN(c4ccccn4)CC3)c(=O)c2c1S(=O)(=O)N1CCC(C)CC1	0	nt	-1	-2	19	-15	-22	-2
COc1cc(/C=C(/NC(=O)c2ccccc2)C(=O)Nc2ccccc2)c([N+](=O)[O-])cc1OC	-9	i	-3	4	-54	1	4	-4
CC(=O)N=c1cccc(NC(C)=O)n1O	-4	i	-1	5	-3	-11	-2	-2
COc1ccc(C(=O)N2CCN(C(C)=O)CC2)cc1S(=O)(=O)N1CCOCC1	27	i	-4	-3	-14	-3	-11	-13
Cc1cc(-c2nn(-c3ccccc3F)cc2CN2CCC(O)CC2)c(C)s1	-2	i	5	2	-14	-2	-16	10
CCOc1ccc(N(CC(=O)NCC2CCCO2)S(=O)(=O)c2ccc(SC)cc2)cc1 (stereo not given)	-4	i	-30	1	nt	-5	2	6
O=c1c2ccccc2oc2ccc(NCCCN3CCOCC3)cc12	9	i	-16	4	-71	-20	-22	1
O=C(/C=C/c1ccco1)NC(=S)NNC(=O)c1ccco1	9.4*	i	0	6	nt	10	-44	92	eIF4H FP inh retest=-2;PABP polyA inh retest=99*
Cc1nc2scc(C)n2c(=O)c1S(=O)(=O)N1CCN(c2ccc(F)cc2)CC1	6	i	2	0	3	9	-7	-6
O=C1CSC(c2ccccn2)N1c1cccc(Cl)c1 (stereo not given)	-2	i	-4	-4	-53	6	-5	-12
O=C(NCc1ccccn1)c1ccc2c(=O)n(CCc3ccccc3)c(=O)[nH]c2c1	-3	i	4	-7	4	-10	nt	-6
Cc1noc(C(=O)Nc2ccc(F)cc2F)c1Cl	-9	i	1	-1	-15	-4	-4	-12
CCOC(=O)C1CCN(CC(=O)c2c(C)n(C)c3ccc(OC)cc23)CC1	-2	i	-4	-1	4	-5	-6	7
CCOc1ccc(OCCNC(=O)c2oc3ccccc3c2COC)cc1	nt	nt	-1	-5	nt	-9	-9	nt
O=C(c1ccccn1)N1CCN(c2ccc(C(F)(F)F)cn2)CC1	-1	i	5	-1	-20	nt	-9	-4
Cc1ccccc1NC(=O)CCN1CCN(C/C=C/c2ccccc2)CC1	-4	i	1	6	-13	-3	nt	-4
CSc1nc2ccccc2n1C(=O)NC1CCCCC1	-4	i	4	3	nt	nt	-22	9
COc1cccc(-n2nnc3c(=O)n(CC(=O)NC4CCCC4)cnc32)c1	-2	i	5	0	nt	15	-11	-5
COc1cc2c(cc1OC)-c1cc(Nc3ccc(N(C)C)cc3)nc(=O)n1CC2	17	i	3	3	-1	5	nt	-7
O=C(CNC(=O)/C(=C\c1ccc(Br)cc1)NC(=O)c1ccccc1)OCc1ccccc1	5	i	0	2	10	-4	-8	-9
O=C(C1CCCN(S(=O)(=O)c2ccccc2)C1)N1CCN(c2ncccn2)CC1 (stereo not given)	4	i	1	-3	nt	nt	-3	2
N#C/C(=C\c1ccco1)Sc1nc2ccccc2s1	8	i	-4	-6	-38	12	-3	12
c1ccc(C2Oc3ccccc3C3CC(c4cccs4)=NN32)cc1 (stereo not given)	-14	i	-5	0	nt	2	-14	-6
COC(=O)c1ccccc1NC(=O)N1CCN(C(=O)c2ccco2)CC1	-2	i	-1	4	-8	-2	-6	3
COc1ccc(-n2c(=S)[nH]c3cc(C(=O)Nc4cc(C(N)=O)ccc4OC)ccc3c2=O)c(OC)c1	6	i	3	1	-5	-16	-7	-8
CCOC(=O)c1c(NC(=O)COc2ncnc3ccccc23)sc(C)c1C	0	i	2	-5	3	-5	nt	-6
COc1ccc(-c2noc(CCCCC(=O)N3CCN(c4cc(C)ccc4C)CC3)n2)cc1	nt	nt	7	-29	68*	nt	-22	nt
COc1cccc(-c2cc(C(=O)N/N=C/c3cccc(OC)c3OC)c3ccccc3n2)c1	nt	i	1	0	5	-4	nt	nt
O=C(O)c1cccc(NC(=O)c2ccc(COc3ccc(Cl)cc3)cc2)c1	21	i	1	6	-9	4	-16	9
O=C(CSc1ccccc1)N1CCCC(N2CCN(c3ccccc3)CC2)C1 (stereo not given)	6	i	-1	-2	3	8	3	-1
CCCCn1nnnc1SCC(=O)c1ccccc1F	-5	nt	3	7	11	1	nt	-4
CCN(CCO)C1CC(=O)N(c2ccccc2C)C1=O (stereo not given)	2	i	1	-1	nt	0	-16	-2
CC(C)C(NC(=O)CN(c1ccc2c(c1)OCCO2)S(=O)(=O)c1ccccc1)C(C)C	nt	i	-7	-4	23	1	-7	nt
CN(C)S(=O)(=O)c1cccc(-c2nnc(SCc3ccc4c(c3)OCCO4)o2)c1	-12	i	-1	-4	nt	-7	-17	-18

The listing continues.
SMILES	PABP polyA inh	Rce1 inh	MT1-MMP act inh	MT1-MMP act inh RFP	HIV Env fusion	CSC inhib	Yeast UUG start	eIF4H FP inh	others
Nc1ncnc2c1ncn2[C@@H]1O[C@H](C(=O)NS(=O)(=O)c2ccccc2[N+](=O)[O-])[C@@H](O)[C@H]1O	nt	nt	-3	-3	?	nt	-2	nt
Cc1cc(=O)oc2c(C(=O)/C=C\c3cccs3)c(O)ccc12	7	i	-4	-8	-8	27	nt	-18
CCc1ccc(NC(=O)CSc2nc3ccccc3c(=O)n2CCCC(=O)NCCCN2CCOCC2)cc1	17	i	6	-5	0	-3	1	-12
Cc1cc([N+](=O)[O-])nn1CC(=O)N1CCc2ccccc2C1	-2	i	3	0	nt	-3	-19	-13
O=C(NC1CCCCC1)c1cc(-c2cccs2)on1	1	i	5	2	-31	8	-8	14
Cc1ccc2sc(N(CCCN(C)C)C(=O)c3ccc(S(=O)(=O)N4CCOCC4)cc3)nc2c1C	nt	i	1	3	nt	-4	15	nt
C[n+]1cccc(C(=O)NNC(=O)C23CC4CC(CC(C4)C2)C3)c1	1	i	-4	3	12	-5	nt	-6
O=C(CSc1cn(Cc2ccccc2)c2ccccc12)NCc1ccc(F)cc1	4	i	4	4	-25	-3	1	-3
CC1CCCN(C(=O)C2CCN(CC3CC=CCC3)CC2)C1 (stereo not given)	6	i	3	7	nt	26	-8	-7
COc1ccc(-c2csc(NC(=O)c3ccccc3F)n2)cc1	-3	i	1	-1	-7	4	-13	-4
CCOc1cc(C2NC(=O)NC(c3ccccc3)=C2C(=O)c2ccccc2)c(Br)cc1OCC(=O)O (stereo not given)	6	i	-8	-2	9	5	nt	5
CCOC(=O)N1CCN(C(=O)C2CCCCC2)CC1	3	i	1	2	-4	-16	-10	4
COc1cccc(NC(=O)c2c([N+](=O)[O-])cnn2C)c1	3	i	-3	-1	-9	-15	-2	0
O=S1(=O)[C@H]2C[C@@H]3C=C[C@]2(CN1Cc1ccc(C(F)(F)F)cc1)O3	-4	i	1	1	8	-4	-14	-4
CC(C)(C)n1nnnc1C(c1cccs1)N1CCCC2(CCCCC2)C1 (stereo not given)	1	i	-20	-19	nt	28	-13	2
CCc1nnc(-n2nc(C)cc2-c2ccccc2)n1N	10	nt	4	9	nt	-5	-8	1
CS(=O)(=O)N(CC(=O)Nc1ccc(Br)cc1F)C1CCCCC1	9	i	0	1	0	0	1	2
COc1ccc(Nc2ncnc3sccc23)cc1	12	nt	nt	nt	-9	-4	-8	-2
Fc1ccccc1CSc1nnc2ccc(-c3ccncc3)nn12	6	i	-5	-1	18	nt	-11	-3
COc1nnc(-c2ccc(N3CCCCC3)c(N)c2)c2ccccc12	nt	i	-6	-8	18	0	3	nt
CCc1nn(CC(=O)NCCCN2CCN(C)CC2)c(=O)c2cc3occc3n12	-4	i	-2	2	-4	-16	-34	-4

Not all compounds are listed. The share of hits here may be higher or lower than overall.
